High-throughput results (PubChem BioAssay)
CapD inh = blocks the Bacillus anthracis CapD enzyme | z-score (concentration not given with the values) | 140,000 compounds, 0.23% hits | purified CapD enzyme, fluorescence intensity read-out; hits give low values; some hits fall short of the stated cut;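 active means z-score under -4 in either of two replicates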;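 further: stock transfer was 100 nL into about 40 µL; score is relative to mean and spread of the plate; one replicate is shown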
AID504770 = growth inhibitors of E. coli YBA685 in a screen for V. cholerae RctB (chromosome II replication) inhibitors; AID 504770; z-score (test concentration not listed); 130,000 compounds, 0.27% hits; E. coli YBA685 rctB-dependent plasmid, OD600 growth, 3 h; hits give low values;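 active means z-score under -2 on both plates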;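 further: wells of about 30 µL received 100 nL stock; score is relative to mean and SD of the test wells; the first replicate is given; strong numbers were not always called active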
* = called active by the depositor; nt = no result given; & = joins results of further samples.

SMILES	CapD inh	AID504770
CCN(Cc1ccccc1)C(=O)c1cccc(C#N)c1	nt	-0.2
CCOc1ccc(-c2nc(COC(=O)c3cccc(-n4cnnn4)c3)cs2)cc1OC	nt	0.05
Nc1ncnc(N2CCc3ccccc32)n1	0.11	-0.45
COc1cc(/C=N/NC(=O)c2cc(-c3cccn3C)n[nH]2)cc(OC)c1OC	1.4	-0.3
O=S1(=O)CC/C(=N\Nc2c(Cl)cc(Cl)cc2Cl)c2ccsc21	-2.1	nt
O=C(c1cnn(C(=O)C2CC2)c1)c1cc(Cl)ccc1O	-1.6	-0.85
CN(Cc1ccccc1)C(=O)c1cc2c(s1)-c1ccccc1OC2	-0.91	-0.8
N#CC1C(c2ccccc2F)C(C(N)=O)C(=O)NC1(O)c1ccccc1 (configuration not stated)	-0.045	-0.35
Cc1ccc(C)c(OC(=O)CCN2C(=O)C3CC=CCC3C2=O)c1C (configuration not stated)	nt	0.05
CN1CCN(C(=O)CSc2nc(-c3ccccc3Cl)cc(-c3ccccc3)c2C#N)CC1	0.34	nt
CC(/C=N/N=C1\SC(CC(=O)Nc2ccc(Cl)cc2)C(=O)N1Cc1ccco1)=C\c1ccccc1 (configuration not stated)	nt	0.7
O=C1NN=C2CC34CCC12CC3=NNC4=O	nt	1.1
Cc1c(C2=CCN(S(=O)(=O)Cc3ccccc3)CC2)c2ccccc2n1CC(=O)N1CCCC1	0.3	-0.45
Cc1cc(NS(=O)(=O)c2cc(Cl)sc2Cl)no1	-0.57	-0.5
COc1ccccc1OCCSc1nc(-c2ccccc2)c(-c2ccccc2)[nH]1	-0.6	0.35
OCC(O)CN1CCc2ccccc21 (configuration not stated)	nt	0.25
O=C(/C=C/c1ccc(OCCCF)cc1)N1CCN(Cc2ccccc2)CC1	-0.72	nt
CN(C)c1cc(N)c2c(n1)CCC2	nt	0
N#CC1=C(N)n2c(nc3ccccc32)NC1c1ccc(Cl)cc1 (configuration not stated)	0.93	0.25
COc1ccc(C2=C(C#N)C(=O)OC2)cc1	64	0.35

Among those listed so far, these have nitrogen in an aromatic ring:
SMILES	CapD inh	AID504770
CCOc1ccc(-c2nc(COC(=O)c3cccc(-n4cnnn4)c3)cs2)cc1OC	nt	0.05
Nc1ncnc(N2CCc3ccccc32)n1	0.11	-0.45
COc1cc(/C=N/NC(=O)c2cc(-c3cccn3C)n[nH]2)cc(OC)c1OC	1.4	-0.3
O=C(c1cnn(C(=O)C2CC2)c1)c1cc(Cl)ccc1O	-1.6	-0.85
CN1CCN(C(=O)CSc2nc(-c3ccccc3Cl)cc(-c3ccccc3)c2C#N)CC1	0.34	nt
Cc1c(C2=CCN(S(=O)(=O)Cc3ccccc3)CC2)c2ccccc2n1CC(=O)N1CCCC1	0.3	-0.45
Cc1cc(NS(=O)(=O)c2cc(Cl)sc2Cl)no1	-0.57	-0.5
COc1ccccc1OCCSc1nc(-c2ccccc2)c(-c2ccccc2)[nH]1	-0.6	0.35
CN(C)c1cc(N)c2c(n1)CCC2	nt	0
N#CC1=C(N)n2c(nc3ccccc32)NC1c1ccc(Cl)cc1 (configuration not stated)	0.93	0.25

More structures
SMILES	CapD inh	AID504770
CC1(c2ccccc2)OC(=O)C(C#N)C12CCCCC2 (configuration not stated)	nt	1.9
O=C(O)/C=C/C(=O)NC1CCN(c2nccc(C(F)(F)F)n2)CC1	1.3	0.4
COCCN1CSC(=S)N(Cc2ccco2)C1	nt	-0.3
Cc1nc(CC(=O)N2CCN(C/C=C/c3ccccc3)CC2)cs1	nt	0.15
CCN(CC)C(=O)CS(=O)CC(=O)Nc1cc(OC)c(Cl)cc1Cl (configuration not stated)	0.005	nt
O=C(O)C1CCCN(S(=O)(=O)c2ccc(-c3ccc(=O)[nH]n3)s2)C1 (configuration not stated)	-0.36	-0.95
O=C(Cn1cc(C(F)(F)F)cc(Cl)c1=O)NC1CC1	nt	-0.5
CNC(=O)N(C)c1nnc(C(C)(C)C)o1	-0.3	nt
Nc1cc(C(F)(F)F)ccc1Oc1ccc(Br)cc1	-0.68	-0.25
Cn1c(SCc2nc3sc4c(c3c(=O)[nH]2)CCCC4)nnc1C(F)(F)F	nt	-0.1
Cc1cc(C)c2c(=O)n(CC(=O)N3CCCCC3)sc2n1	4.6	-1.1
CCOC(=O)N1CCC2(CC1)C(C#N)=C(C)Nc1oc(C)nc12	-0.16	-0.85
CC(/C=C1\SC(=S)N(CCC(=O)N2CCN(C)CC2)C1=O)=C\c1ccccc1	0.27	-0.85
O=C(Nc1cc(Cl)cc(Cl)c1)N1CCN(Cc2ccccc2)CC1	-1.1	0.5
O=C(COc1ccc(Oc2ccccc2)cc1)N1CCN(Cc2ccccc2)CC1	0.46	0.65
O=C(CN1C(=O)c2cccc3cccc1c23)N/N=C/c1ccncc1	nt	-3.5
CC1C=CCC2C(=O)N(c3cccc(C(=O)O)c3)C(=O)C12 (configuration not stated)	0.26	0.4
O=C(Nc1n[nH]c(C(F)(F)F)n1)c1ccco1	0.22	-0.45&-0.5
Cc1noc(C)c1COC(=O)c1cccc(S(=O)(=O)N(C)C2CCCCC2)c1	nt	0.4
CCc1ccccc1NC(=O)Cn1c(=O)n(Cc2ccc3c(c2)OCO3)c(=O)c2ccccc21	0.84	-0.05
Cc1ccc(C(=O)Cn2c(=N)sc3cc(C)ccc32)cc1	nt	-0.4
CCn1c(=O)cc(SCC(=O)NCCN2CCN(Cc3ccccc3)CC2)c2ccccc21	0.77	-1.9
CN(C)Cc1cc(CN(C)C)c(O)c(CN(C)C)c1	0.47	-0.05
Cn1c(SCC(=O)NCc2ccc(Cl)cc2)nnc1-c1ccc(Cl)cc1	-0.22	-0.3
COc1ccc(N2CCN(C(=O)c3csc4c3CCCCC4)CC2)cc1	0.19	-0.25
CS(=O)(=O)c1cc(C#N)c(N2CCNCC2)nc1-c1ccccc1	-0.24	nt
O=C(CN1C(=O)/C(=C\c2ccccc2)Oc2ccccc21)NC1CCCCC1	-1.7	-0.3
COc1cc(Br)c(CN2CCN(C(=O)OCC(C)Cl)CC2)cc1OC (configuration not stated)	0.075	nt
Cc1sc2ncnc(-n3nnc4ccccc43)c2c1C	2.7	-0.95
COc1cccc(-c2cc(C(=O)NC3CCCC3)on2)c1	-0.28	-1
Cc1occc1C(=O)Nc1cccc(-c2nn[nH]n2)c1	-1	2.4
CCOC(=O)c1cc(-c2ccc(S(=O)(=O)N(C)CC3COc4ccccc4O3)s2)on1 (configuration not stated)	0.045	0
O=C(O)CC1SC(N2CCCC2)=NC1=O (configuration not stated)	nt	-0.1
O=CN/N=C/c1ccc(C(=O)O)cc1	nt	-0.85
Cc1cccc(NC(=O)c2cccn(Cc3cccc(C(F)(F)F)c3)c2=O)c1	-1.2	nt
CC(C)(C)c1cc2nc(C(F)(F)F)cc(N3CCN(C(=O)OCCSCc4ccc5nonc5c4)CC3)n2n1	42	nt
COc1cccc(Nc2nc3ccccc3nc2NS(=O)(=O)c2cccs2)c1	nt	-1.2
Cn1cc(/C=N/NC(=O)Cn2cncn2)c2ccccc21	-0.68	nt
CCn1cc(C(=O)NC2CCCCCCC2)c(=O)c2cc(S(=O)(=O)N(C)C)ccc21	-0.43	-0.6
NC(=O)C1C2CCCC1C2c1ccccc1 (configuration not stated)	-0.22	nt
COc1cc(/C=C2\SC(=S)N(CCC(=O)Nc3ccccc3O)C2=O)cc(OC)c1OC	0.065	nt
O=C(c1csc(-c2ccc(Cl)cc2)c1)N1CCCCC1	0.095	1.3
C=CCNc1nc(C(=O)OCC(=O)N(C)C2CCS(=O)(=O)C2)cs1 (configuration not stated)	nt	-0.15
CC(C)(C#N)NC(=O)Nc1ccccc1	-1.6	-0.1
Nc1ncnc2nc(SCCO)[nH]c12	nt	-0.55
COC(=O)c1cccc(NC(=O)c2ccccc2C(=O)O)c1	-1.6	-0.45
O=C(OCc1ncc(-c2ccccc2)o1)c1cc2c(s1)CCC2	nt	-0.35
COCCCN1C(=S)NC2c3cccc(OC)c3OC1(C)C2C(=O)N(C)C (configuration not stated)	-0.94	-0.3
CCOC(=O)c1c(C)oc2ccc(OCC(N)=O)cc12	nt	2.1
O=C(OCCN1C(=O)c2ccccc2C1=O)c1ccccc1	-0.38	-0.5
Continued.
SMILES	CapD inh	AID504770
C=CCn1ncc(OC)c(Cl)c1=O	-0.13	-0.9
CC1=C(C(=O)Nc2ccccc2F)C(c2ccccc2)C2=C(CC(c3ccccc3)CC2=O)N1 (configuration not stated)	57	2.2
CC1CC(C)CN(C(=O)c2ccc3c(c2)N(Cc2ccccc2)C(=O)c2ccccc2S3=O)C1 (configuration not stated)	0.21	-0.7
Cc1oc2cc(Br)c(OCc3ccccc3F)cc2c1C(=O)OC(C)C	-0.22	nt
COc1ccc(Cl)cc1C(=O)N/N=C/c1c[nH]c2ccccc12	0.81	nt
COc1ccc2[nH]c3c(c2c1)CN(C)CC3	0.21	0.95
NS(=O)(=O)c1ccc(CCNC(=O)c2ccc3c(=O)n4c(nc3c2)CCCCC4)cc1	nt	-0.45
CN(C1=NS(=O)(=O)c2ccccc21)c1ccc(OC(=O)c2ccc([N+](=O)[O-])cc2)cc1	-0.12	nt
CCN(CC)C(=O)C1CCCN(C/C=C/c2ccccc2)C1 (configuration not stated)	0.2	-0.65
Clc1ccc(C2CN3C(=N2)C=Cc2ccccc23)cc1 (configuration not stated)	62	nt
COc1ccc(S(=O)(=O)Nc2ccc3c(c2)c(C(C)=O)c(C)n3S(=O)(=O)c2ccc(OC)cc2)cc1	0.15	nt
CC(CCOC(=O)NCCNc1ccccc1)c1ccccc1 (configuration not stated)	-0.075	nt
CS(=O)(=O)c1ccc(CSCCNS(=O)(=O)c2cccc(C(F)(F)F)c2)cc1	-0.7	nt
COC(=O)CC(NC(=O)c1ccccc1F)c1ccc(Br)cc1 (configuration not stated)	-0.11	nt
COc1ccc(N2C(=O)CC(SCC(=O)Nc3cc(C(F)(F)F)cc(C(F)(F)F)c3)C2=O)cc1 (configuration not stated)	-0.65	nt
COc1ccc(-c2cn3cccnc3n2)cc1NC(=O)c1cc(OC)c(OC)c(OC)c1	nt	0.3
COc1ccccc1-n1c(-c2cccs2)nn(CN2CCCC(O)C2)c1=S (configuration not stated)	nt	-2.1
CCCS(=O)(=O)c1c(S(=O)(=O)CCC)c2c3ccccc3ccn2c1C(=O)N/N=C/c1ccccc1	-0.15	nt
Cc1cccc(C(C)C)c1NC(=O)c1cccnc1	-0.18	-0.35
CC1CCc2nn(CC(=O)N3CCc4ccccc43)cc2C1 (configuration not stated)	0.095	0.55
Cn1cc(C(=O)NCCCN2CCCC2)c2c3ccccc3n(C)c2c1=O	-0.22	1.2
CCn1c(SC(C)C(=O)NC(N)=O)nc2ccccc2c1=O (configuration not stated)	nt	-1.4
CSc1ncc(Cl)c(C(=O)Nc2nnc(SCc3ccc(F)cc3)s2)n1	11	1.1
COc1ccc(Br)cc1/C=C1/N=C(c2ccc(OC)c(OC)c2)OC1=O	0.66	nt
COc1ccc2c(=O)c(-c3ccccn3)coc2c1	0.07	-0.75
CCCCC(=O)N1c2ccccc2NC2=C(C(=O)CCC2)C1c1ccc(N(C)C)cc1 (configuration not stated)	-0.61	-0.7
Oc1ccc(Cl)cc1-c1ccc2cccnc2n1	-0.28	nt
Cc1cc(NC(=O)Nc2cn(C)c(=O)c3ccccc23)no1	78	1.2
Cc1cc(C(=O)OCC(=O)C(C)(C)C)c(C)o1	0.27	-1.5
Cc1ccc(S(=O)(=O)OCC23CC4CC(CC(C4)C2)C3)cc1	0.5	nt

Next section; it opens with the 4 that closed the last part.
SMILES	CapD inh	AID504770
Oc1ccc(Cl)cc1-c1ccc2cccnc2n1	-0.28	nt
Cc1cc(NC(=O)Nc2cn(C)c(=O)c3ccccc23)no1	78	1.2
Cc1cc(C(=O)OCC(=O)C(C)(C)C)c(C)o1	0.27	-1.5
Cc1ccc(S(=O)(=O)OCC23CC4CC(CC(C4)C2)C3)cc1	0.5	nt
Cc1nc(N2CCN(c3ccc([N+](=O)[O-])cc3)CC2)c2c3c(sc2n1)CCCC3	-0.62	nt
Oc1ccc(/C=N/n2c(-c3ccco3)csc2=Nc2ccc(F)cc2F)c(O)c1	nt	1.8
Cc1cc(N2CCOCC2)c(F)cc1C(=O)c1ccccc1	-0.92	-0.35
CC(Oc1cccc(Cl)c1)C(=O)O/N=C(\N)c1cccnc1 (configuration not stated)	-6*	-0.6
CCN(CC)c1nc2c(c(=O)n(C)c(=O)n2C)n1CC(=O)c1ccc(OC)cc1	0.47	0.05
COc1cc(OC)nc(-c2ccc(NC(=O)c3ccc(F)cc3Cl)cc2)n1	-0.71	nt
C=CCn1c(NCc2cccs2)nc2ccccc21	-0.35	0.95
CS(=O)(=O)c1ccc(COc2ccccc2C(=O)NCCN2CCOCC2)cc1	-0.43	nt
CC(C)(C)Sc1ccccc1CN1CCCCC1COC(=O)N1CCN(c2cccc3[nH]ccc23)CC1 (configuration not stated)	0.26	nt
O=C(O)c1ccc(N2C(=O)CCC2=O)cc1	-0.24	0
COc1cc(OC)c(OC)cc1/C=N/NC(=O)c1ccc(C(F)(F)F)cc1	-1	nt
COC(=O)C1=C(Nc2ccccc2NC(=O)c2ccco2)CSC1	-0.04	-0.3
CCOC(=O)C(=CNc1cn(C)c(C)c1C(=O)c1ccccc1)C(=O)OCC	-2.1	nt
CCOC(=O)c1nc(-c2cc[n+](C)cc2)no1	0.64	-0.4
CCCCNc1c2c(c(C#N)c3nc4ccccc4n13)CCC2	nt	2.4
CSC1=NCC(=O)N1CCc1c[nH]c2ccccc12	-0.34	nt
Cc1ccc(NC(=O)Cn2c(C(F)(F)F)nc3ccccc32)cc1	-0.28	-1.6
CN(C)Cc1n[nH]c(=S)o1	nt	2
NC(=O)C(C(=O)/C=C/c1ccccc1)=C1SCCS1	nt	-0.75
CSc1cc(-c2ccc(F)cc2)[nH]n1	-0.15	nt
CC1(C)c2ssc(=S)c2-c2ccccc2N1C(=O)CN1CCOCC1	-0.48	nt
O=[N+]([O-])c1cccc(-c2nc(-c3ccccc3)c(-c3ccc(Oc4ccccc4)cc3)[nH]2)c1	-0.49	nt
